# Assay outcomes deposited in PubChem by Center for Chemical Genomics, University of Michigan.
# HIV TAR-Tat: HIV-1 TAR-Tat binding disruption. HIV-1 TAR RNA, Tat peptide displacement FRET; stronger effect = higher value. z-score (test concentration not listed). 100,000 compounds, 0.6% hits. AID 1259389;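 note: score is relative to mean and SD of negative controls; some compounds called inactive have numbers as strong as hits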
# CDC25B-CDK2 inh: human CDC25B-CDK2/CyclinA binding inhibition; P30305+P24941; HTRF CDC25B-CDK2/CyclinA binding, anti-His/anti-Flag; stronger effect = higher value; z-score (no concentration beside the values); 94,000 compounds, 0.72% hits;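 note: score is relative to mean and SD of negative controls; strong numbers were not always called active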
# Starred values were filed as active, the others as inactive; nt = no result given.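 Rule for the calls: active = z-score from 3 up in half or more of its runs; inactive = the rest.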 The order is random. Share with any hit: about 0.87%.
SMILES,HIV TAR-Tat,CDC25B-CDK2 inh
Cc1nnc(NC(=O)CSc2c(CC(C)C)cnc3c2c(=O)n(C)c(=O)n3C)s1,-0.38,nt
Cc1ccc([N+](=O)[O-])c(C(=O)SCC(=O)Nc2cc(C(F)(F)F)cc(C(F)(F)F)c2)c1,nt,-0.22
CCN(CC)CCNc1nc(Nc2ccccc2)c2cnn(C)c2n1,1.2,nt
COc1cccc(-c2nc(=S)c3c(n2CCO)CCCC3)c1,-0.42,-0.82
Cn1ccnc1SCC(=O)N1CCCC1,0.89,1.2
CCOC(=O)Cn1nc2n(Cc3ccc(C)cc3)c3ccccc3n2c(=O)c1=O,0.91,0.2
OC(C#CCN1CCOCC1)c1cccs1 (centres undefined),0.5,-2.5
CCc1cc2c(cc1C(=O)CCN1CCOCC1)C(C)(C)CCC2(C)C,nt,-1.8
CC1(C(=O)NCC2CCCO2)Cn2c(cc3ccccc32)C(=O)N1C1CCCc2ccccc21 (centres undefined),-1.6,nt
O=C(CSc1ccc2nnc(CCNS(=O)(=O)c3ccccc3)n2n1)N1CCCCC1,0.68,nt
CCOC(=O)c1nc(N2CCCC2)c2ccccc2n1,1.1,-0.65
CC1=C(C(=O)OCC(F)(F)F)C(c2ccc(Cl)cc2)NC(=O)N1 (centres undefined),nt,-1.9
COc1ccc(C2C(C#N)=C(N)OC3=C2C(=O)CC(C)(C)C3)c(CSc2ccccn2)c1 (centres undefined),nt,0.37
Cc1nn(-c2ccccc2)c(Cl)c1[N+](=O)[O-],2.4,-0.64
O[C@@H]1C2C3CC4C5C3C1C(c1ccccc1)(C42)[C@H]5O (some centres undefined),nt,-2
C=C(C#N)CN1CCN(CC(=C)C#N)CC1,nt,-0.75
N#Cc1cccc(NC(=O)c2ccncc2)c1,nt,-1.7
CNC(=O)c1c(NC(=O)c2ccccc2Br)sc2c1CCC2,-0.16,nt
COc1ccc(-c2c(C)nn3c4c(cnc23)C(=O)CC(C)(C)C4)cc1,0.91,-0.66
CCSC1=C(C#N)C(c2ccc(Br)cc2)CC(=O)N1 (centres undefined),0.64,1.1
COc1ccc(NC(=O)NCCc2csc3c2CCCC3)c(OC)c1,0.08,nt
COc1ccc(Nc2oc(/C=C/c3ccccc3OC)nc2C#N)cc1,0.62,-1.1
Cc1c(Cl)cccc1NC(=O)CSc1nc(-c2ccco2)nc2cc(=O)[nH]n12,1.3,nt
Cc1cccc(C)c1OCC(O)Cn1c[n+](C)c2ccccc21 (centres undefined),-0.39,-2.4
OCCN1CCN(c2nn3nnnc3c3ccccc23)CC1,1.4,-1.9

# Brought forward from above: 4 entries; new compounds follow.
SMILES,HIV TAR-Tat,CDC25B-CDK2 inh
COc1ccc(Nc2oc(/C=C/c3ccccc3OC)nc2C#N)cc1,0.62,-1.1
Cc1c(Cl)cccc1NC(=O)CSc1nc(-c2ccco2)nc2cc(=O)[nH]n12,1.3,nt
Cc1cccc(C)c1OCC(O)Cn1c[n+](C)c2ccccc21 (centres undefined),-0.39,-2.4
OCCN1CCN(c2nn3nnnc3c3ccccc23)CC1,1.4,-1.9
C/C(=N\NS(=O)(=O)c1ccc(C)cc1)c1ccc(OCCOc2ccc([N+](=O)[O-])cc2)cc1,nt,-0.72
N#Cc1cc([N+](=O)[O-])ccc1SCc1ccccc1,nt,-1.4
CC1=NS(=O)(=O)c2cc(S(=O)(=O)CC(=O)Nc3ccc(F)cc3)ccc2N1,0.89,nt
O=[N+]([O-])c1c(N2CCOCC2)n[nH]c1-c1nnco1,3.1,-0.71
COc1cccc(-c2n[nH]c3c2C(c2ccc(Cl)cc2)NC3=O)c1 (centres undefined),-0.23,0.66
COC(=O)c1cc2occc2n1Cc1ccccc1F,-0.61,0.5
COc1ccc(-c2[nH]nc3oc(=O)cc(C)c23)cc1,nt,-0.58
CC1(C)CC(=O)C2=C(C1)Nc1ccccc1N(CC(=O)NC1CCCCC1)C2c1cccs1 (centres undefined),2.2,nt
CCOC(=O)c1sc2ccccc2c1S(=O)(=O)N1CCOCC1,0.71,nt
Cc1ccc(S(=O)(=O)c2nc(S(C)(=O)=O)sc2NCc2cccnc2)cc1,0.6,-0.54
COc1ccc2c(c1)[C@@]1(C)CCC(=O)C[C@H]1CC2,3.5,nt
CCc1nccn1S(=O)(=O)c1cc(Br)c(C)cc1OC,-0.16,-0.5
CCCOC(=O)C1=C(C)NC2=C(C(=O)CCC2)C1c1ccccc1OC(C)C (centres undefined),-0.6,-1.1
COc1cc2nc(-c3ccccc3)oc(=O)c2cc1OC,0.94,-0.95
COc1cc(C2C(C#N)=C(N)OC3=C2C(=O)CCC3)cc(OC)c1OC(C)=O (centres undefined),nt,-0.25
O=C(NC1CC1)c1ccc2c(=O)nc3c(-c4ccccc4)n[nH]n3c2c1,2.7,nt
CC(C)c1onc(C(=O)N2CCOCC2)c1[N+](=O)[O-],0.41,-2
COC(=O)c1ccc(C2SCC(=O)N2Cc2ccccc2)cc1 (centres undefined),nt,-2.1
O=C(/C=C/Sc1ccc(C(F)(F)F)cn1)c1ccccc1,nt,-1.2
CCOc1ccc(S(=O)(=O)NCCc2c(C)nn(CC)c2C)cc1,0.24,0.69
Cc1c(CCNS(=O)(=O)c2ccc3ccccc3c2)sc2nc(-c3ccc(Cl)cc3)nn12,-0.96,nt
Cc1ccc(Nc2c(-c3ccc4c(c3)CCCC4)c(=O)c2=O)c(Cl)c1,-1.6,nt
Cn1nnc2cc(-c3noc(CNC(=O)C(c4ccccc4)c4ccccc4)n3)ccc21,1.3,nt
COc1ccc(-c2n[nH]c3c2C(c2ccccc2OC)NC3=O)cc1 (centres undefined),-0.15,nt
Cc1[nH]n(-c2ccccc2)c(=O)c1C(=O)c1ccccc1,nt,0.12
SMILES,HIV TAR-Tat,CDC25B-CDK2 inh
CCOc1ccc(OCC)c(NC(=O)C2=C(C)C(=O)OC23CCN(C(C)C)CC3)c1,0.24,nt
Cc1cc(OCC(O)Cn2c(C3CC3)nc3ccccc32)ccc1Cl (centres undefined),2.2,-1
CCC(=O)c1c(C)oc2ncnc(Nc3ccc(CCO)cc3)c12,0.97,2.4
O=C(NC1CCCc2ccccc21)c1cc(CN2CCOCC2)on1 (centres undefined),-0.47,nt
COc1ccc(NC2=NS(=O)(=O)c3ccccc32)c(OC)c1,0.12,-0.67
CCOC(=O)N1CCN(C(=O)c2cc3n(n2)C(C(F)(F)F)CC(c2ccc4c(c2)OCO4)N3)CC1 (centres undefined),2.6,nt
Cc1nc(SCC(=O)c2ccc(Br)cc2)c(C#N)c(C)c1C,-0.78,-9.6
CCS(=O)(=O)NCC(c1ccc(N(C)C)cc1)N1CCc2ccccc21 (centres undefined),1.9,nt
COc1ccc(-c2cccc(NS(=O)(=O)c3cc(F)ccc3F)c2)nn1,0.14,nt
CCc1nc(-c2cc(S(=O)(=O)N3CCC(N4CCCCC4)CC3)c(C)s2)no1,0.29,nt
Nc1nc(-c2ccccc2)nn1C(=O)c1cccc(Cl)c1,0.31,-1.6
COc1ccc(C2=C(C)C(=NC(C)c3ccc4c(c3)OCCO4)NS2(=O)=O)cc1 (centres undefined),0.76,-0.89
O=C(c1c[nH]c2ccc(F)cc2c1=O)N1CCCCC1,0.86,-2.2
CCCn1c(=O)sc2cc(NC(=O)c3cccs3)ccc21,-0.36,-1.6
O=C(NC1CCCCC1)c1ccc(-c2ccsc2)cc1,1.1,nt
CCOc1ccc(NC2c3ncccc3C(=O)N2c2ccc(OC)cc2)cc1 (centres undefined),-0.04,nt
Cc1nc(N2CCOCC2)ncc1C(=O)NCCCc1ccco1,1,nt
O=C(O)c1ccc(CSc2cc(-c3ccccc3)ncn2)cc1,1.1,-1.9
COc1ccc(/C(O)=C2\C(=O)C(=O)N(CCCn3ccnc3)C2c2ccc(Br)cc2)cc1 (centres undefined),0.73,-1.5
Cc1nc(C#N)c(N2CCCCC2)o1,-0.1,-0.49
CCOC(=O)Oc1ccc2c(c1)oc(=O)c1ccccc12,2.4,-1
Cc1ccc2c(c1)c1nc3ccccc3nc1n2CC(=O)OC(C)C,-0.17,-0.17
CCC(Sc1nnc(CSc2nc(C)cc(C)n2)n1-c1ccc(F)cc1)C(=O)OC (centres undefined),1.7,-1.5
O=S(=O)(c1ccccc1)c1nnn2c1nc(N1CCCC1)c1sccc12,0.06,nt
COC(=O)C1=C(C)NC2=C(C(=O)CC(C)(C)C2)C1c1ccc(O)cc1 (centres undefined),0.16,-1.4
SMILES,HIV TAR-Tat,CDC25B-CDK2 inh
O=C(NCc1ccco1)c1nn2c(C(F)(F)F)cc(-c3ccc(Br)cc3)nc2c1Cl,1.9,nt
Cc1ccc(S(=O)(=O)N(CCCc2ccccc2)CCS(=O)(=O)N2CCNCC2)cc1C,1.3,nt
CCN(CC)CCCNC(=O)Cn1ncn2cccc2c1=O,1,1.9
CC1CC2c3cccc(C(=O)O)c3C(=O)N2c2ccc(F)cc21 (centres undefined),nt,-0.89
CCCN1CCN(c2nc(NCc3ccc(Cl)cc3)c3cnn(C)c3n2)CC1,1.9,nt
O=C(CC1(O)C(=O)N(CCc2ccccc2)c2ccc(Br)cc21)c1ccccn1 (centres undefined),-0.15,1.2
c1ccc(N2CCN(c3c4c(nc5ncnn35)CCC4)CC2)cc1,-0.14,nt
CCN(CC)c1ccc2nc3c4ccccc4c(=O)cc-3oc2c1,-7.9,-2.1
CN(C(=O)Nc1cn(C)c(=O)c2ccccc12)c1ccccc1F,-1.1,1.9
CCOC(=O)CCSc1nc(N2CCOCC2)c2c(c1C#N)CC(C)(C)OC2,nt,-1
CC(C)OCCCNC(=O)c1cc2c(s1)-c1ccc(Cl)cc1S(=O)(=O)C2,0.44,-0.98
CC(=O)N1CCOc2cc(S(=O)(=O)N(C)C3CCCCC3)c(Cl)cc21,0.34,nt
OC(c1nc2ccc(Cl)cc2[nH]1)C(O)c1nc2ccc(Cl)cc2[nH]1 (centres undefined),nt,-1.2
Cc1[nH]n2c(=O)cc(-c3ccc(F)cc3)nc2c1-c1ccccc1,-2.1,-1.8
COc1cc(C2NCCS2)cc(OC)c1OC (centres undefined),nt,-0.41
Cc1cc(=O)[nH]c(SCCOc2ccc(C(C)(C)C)cc2)n1,-0.71,0.98
CC(=O)Oc1ccc2c(c1)CCC1C2=CCC2(C)C(OC(C)=O)CCC12 (centres undefined),nt,-2.3
Cc1ccc(C)c2c(=O)cc(CSc3ncn[nH]3)[nH]c12,-0.29,nt
CC(C)Cn1cc(NC(=O)Nc2ccc(Cl)cn2)c2ccccc2c1=O,1.3,nt
Cc1nc(C)c(CCNS(=O)(=O)c2ccc(Cl)cc2)s1,-0.02,nt
CCOC(=O)c1nc(Nc2ccc(S(=O)(=O)Nc3nc(C)cc(C)n3)cc2)c2ccccc2n1,nt,-1.4
CC(C)CNc1ncnc2c1cnn2C,1.5,nt
COc1cccc(C2C=C(C(=O)O)Nc3ncnn32)c1 (centres undefined),2.1,-0.91
O=C(Nc1ccc2c(c1)OCCO2)[C@@H](c1ccccc1)N1Cc2ccccc2C1=O,0.14,0.14
COc1ccc2oc(=O)c(-c3csc(Nc4ccccc4)n3)cc2c1,nt,-2.1

# Record cards, as listed above. Screens in order: HIV TAR-Tat, CDC25B-CDK2 inh
# `CCOC(=O)c1nc(Nc2ccc(S(=O)(=O)Nc3nc(C)cc(C)n3)cc2)c2ccccc2n1` is listed as nt, -1.4
# `CCN(CC)c1ccc2nc3c4ccccc4c(=O)cc-3oc2c1` is listed as -7.9, -2.1
# `Cc1[nH]n2c(=O)cc(-c3ccc(F)cc3)nc2c1-c1ccccc1` is listed as -2.1, -1.8

# Back to the main list; the two compounds before the break are reprinted first.
SMILES,HIV TAR-Tat,CDC25B-CDK2 inh
O=C(Nc1ccc2c(c1)OCCO2)[C@@H](c1ccccc1)N1Cc2ccccc2C1=O,0.14,0.14
COc1ccc2oc(=O)c(-c3csc(Nc4ccccc4)n3)cc2c1,nt,-2.1
COc1cc(Cl)c(NS(=O)(=O)c2cc(-c3onc(C)c3C)ccc2OC)c(OC)c1,1.4,nt
Cc1ccc(C(=O)NNC(=O)c2cc(-c3ccccc3)c(C(F)(F)F)s2)cc1,nt,-1.6
CCCC(=O)OCc1cc(=O)n2nc(CC(C)C)sc2n1,-1.3,nt
CCCCN(C(=O)c1noc2c1COc1ccccc1-2)C1CCN(C(C)=O)CC1,0.41,2
O=C(NCC1COc2ccccc2O1)C1CCN(S(=O)(=O)c2cccc3nsnc23)CC1 (centres undefined),nt,-1.9
O=C(c1ccccc1)C1CCN(C(=O)c2ccco2)CC1,nt,-1.8
O=C(CN1c2ccccc2NC2=C(C(=O)CCC2)C1c1cccs1)Nc1ccccc1Cl (centres undefined),0.62,nt
Cc1cc(C)n2nc(CNS(=O)(=O)c3ccc(CC(C)C)cc3)nc2n1,0.27,0.51
O=C1NCCN=C(c2ccccc2)c2ccccc21,nt,0.12
CC1=C(C(=O)Nc2ccc(Cl)cc2C(=O)NC2CCCCC2)SCCO1,1.1,nt
C=CCN[C@H]1CS(=O)(=O)C[C@@H]1S(=O)(=O)c1ccc(NC(C)=O)cc1,0.03,-1.7
C=C(C)Cn1c(CC(C)C)nc2ccccc21,0.49,1.2
COc1ccc(-n2nc3c(c2NC(=O)C(=O)NC2CCCCC2)CSC3)cc1,3.3,nt
O=c1nc2c(-c3c(F)cccc3Cl)n[nH]n2c2ccc(Cl)cc12,0.03,-2.6
CC(C)CC(NC(=O)C1CCCCC1)C(=O)NC1CCC(C)CC1 (centres undefined),1.6,-0.59
c1ccc(Sc2c(-c3ccccc3)nc3sccn23)cc1,-0.09,-0.25
COc1cccc(CNc2nc(-c3ccccc3)no2)c1,1.4,nt
CCOc1ccc(NS(=O)(=O)c2ccc3c(c2)N(C)CCO3)cc1,0.31,nt
